Source: PubChem BioAssay (Center for Chemical Genomics, University of Michigan)
HIV TAR-Tat: HIV-1 TAR-Tat binding disruption; HIV-1 TAR RNA, Tat peptide displacement FRET; stronger effect = higher value; z-score (test concentration not listed); 100,000 compounds, 0.6% hits; AID 1259389;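 further: score is relative to mean and SD of negative controls; some compounds called inactive have numbers as strong as hits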
CDC25B-CDK2 inh: human CDC25B-CDK2/CyclinA binding inhibition. P30305+P24941. HTRF CDC25B-CDK2/CyclinA binding, anti-His/anti-Flag; stronger effect = higher value. z-score (concentration not given with the values). 94,000 compounds, 0.72% hits. AID 1259370;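 further: score is relative to mean and SD of negative controls; strong numbers were not always called active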
The depositor's hits bear a star; . = no result given.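 How the source made its calls: active means z-score from 3 up in half or more of its runs; inactive means the rest.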

Results follow in this order: HIV TAR-Tat | CDC25B-CDK2 inh
> CCOCCCNC(=O)C1c2c(n(C)c3ccccc23)SCC(=O)N1C1CC1 (configuration not stated)
→ 1.8 | .
> Cc1oc2ncnc(N3CCCCC3)c2c1C(=O)N(CC(C)C)CC(C)C
→ 0.79 | .
> COCCNc1ncnc2c1cnn2-c1ccc(Cl)cc1
→ . | -0.8
> Cc1cc2c(cc3c(=O)n(CC(=O)N4CCCCCC4)ncn32)s1
→ . | -1.3
> Cc1cc(C)c2c(=O)cc(C(=O)Nc3nc(C)c(C(=O)OCC(C)C)s3)oc2c1
→ -0.07 | -0.35
> COc1ccc2c(c1)c(N1CCCC1=O)c(C(=O)Nc1cc(Cl)c(OC)cc1OC)n2C
→ -0.62 | .
> c1csc(-c2nc3sc(-c4cccs4)nc3s2)c1
→ -0.76 | 0.19
> COc1ccc2c(c1)CCc1c-2n[nH]c1C(=O)NC1CC1
→ 1.4 | .
> CN(C)c1ccc(CN2CCc3nc(N4CCN(c5ccccn5)CC4)ncc3C2)cc1
→ -0.34 | .
> O=C(NCc1cccs1)c1ccc([N+](=O)[O-])o1
→ . | -2.8
> COC(=O)c1c(N2C(=O)C3C4CCC(O4)C3C2=O)sc2c1CCCCCC2 (configuration not stated)
→ . | -1.1
> CN(C)S(=O)(=O)N(CC(=O)Nc1c(F)cccc1F)c1ccccc1
→ 2.4 | -0.57
> N#CC(C#N)=C(N)C(Cl)Cl
→ . | -1.4
> Cc1ccc(Nc2ncnc3c2oc2ccccc23)cc1
→ . | -2.4
> Cc1ccsc1CN(C(=O)c1cc(-c2ccc(Cl)cc2)on1)C1CCS(=O)(=O)C1 (configuration not stated)
→ 2 | 0.67
> COC(=O)c1c(N)c(C#N)c2n1CCC2
→ -5.2 | 0.01
> CCOC(=O)c1[nH]c2ccccc2c1-n1cccc1
→ 0.91 | 0.46
> CCOc1ccc(NC2=NS(=O)(=O)C(c3ccc(F)cc3)=C2C)cc1
→ -0.18 | .
> CCCCN(C)C(=O)c1cc2c(s1)-c1ccc(Cl)cc1S(=O)(=O)C2
→ 1 | -1.3
> O=C(/N=S1\CCC2(C1)OCCO2)Nc1ccc(OC(F)(F)F)cc1 (configuration not stated)
→ . | 0.56
> COc1cc2c(cc1OC)C(C(=O)N1CCN(c3ccccn3)CC1)C1c3ccccc3CCN1C2=O (configuration not stated)
→ 0.27 | -3.2
> Cc1ncc(-c2ccc(S(=O)(=O)N(C)Cc3ccco3)cc2)o1
→ 1 | .
> CSc1cccc(NC(=O)CSc2nncn3c2cc2sccc23)c1
→ 3.2 | .
> O=C(CNS(=O)(=O)c1cccs1)Nc1ccc(F)cc1F
→ 0.21 | .
> COc1ccc(OC)c(NS(=O)(=O)c2cc(-c3cc(C)no3)ccc2C(C)C)c1
→ 0.75 | .
> CC(=O)N1c2ccc(S(=O)(=O)NCC3CCC(C(=O)N4CC(C)CC(C)C4)CC3)cc2CC1C (configuration not stated)
→ 0.16 | .
> O=C(Cc1ccccc1)NC1CCN(C(=O)Cc2ccccc2)CC1
→ . | -1.3
> CSC1=N/C(=C\c2ccccc2F)C(=O)S1
→ 0.08 | -0.31
> Brc1ccc(-c2cn3c4ccccc4n(CCN4CCOCC4)c3n2)cc1
→ 1.4 | -2
> Cc1ccc(N2C(=O)CCC2=O)cc1
→ . | 0.05
> COC(=O)C(C)NC(=O)N1CCC2(CC1)Nc1ccccc1-n1cccc12 (configuration not stated)
→ 0.81 | .
> O=C(c1ccc(Br)o1)N1CCN(c2ccc3nnc(-c4ccc(F)cc4)n3n2)CC1
→ . | -2.8
> COc1ccc(-c2cc(-c3nc(-c4ccncc4)no3)[nH]n2)c(OC)c1
→ -0.42 | .
> Cc1ccc(CNC(=O)c2nc(CS(=O)(=O)c3ccc(Cl)cc3)no2)o1
→ 0.68 | .
> CC(=O)Oc1ccc(OC(C)=O)c(C2=C3C(=O)N(Cc4ccccc4)CC(=O)N3CCC2)c1
→ . | -0.31
> CCc1ccc(S(=O)(=O)Nc2ccc3c(c2)sc(=O)n3C)cc1
→ 0.51 | .
> C[C@H](NC(=O)[C@H](Cc1ccccc1)NC(=O)OCc1ccccc1)C(=O)CF
→ 1.2 | .
> COc1ccc(C2CC(=O)C=C(Nc3ccc(Br)cc3)C2)cc1OC (configuration not stated)
→ 2.3 | -0.42
> COCCCNC(=O)c1oc2ccc3c(c2c1C)C(=O)CC1(CCC(C)CC1)O3 (configuration not stated)
→ 0.81 | 0.25
> CCCCC1CCC(C(=O)Nc2ccc3nsnc3c2)CC1 (configuration not stated)
→ -0.03 | -0.1
> Cc1nc(-c2noc(-c3ccccc3Cl)n2)c(C(F)(F)F)o1
→ . | -2.3
> NC(=O)c1c(NC(=O)Cn2c(=O)oc3ccccc32)sc2c1CCCC2
→ . | -0.46
> CC1=C(c2ccc(C)cc2)S(=O)(=O)N=C1N1CCN(c2ccccc2)CC1
→ -0.04 | -1.5
> COc1ccc(C(=O)c2ccc([N+](=O)[O-])cc2)cc1
→ . | -0.5
> CCCCOc1ccc(S(=O)(=O)n2nc(C)c(S(=O)(=O)N3CCC(C)CC3)c2C)cc1
→ 0.79 | .
> COc1ccccc1-n1c(=O)oc2ccc(Cl)cc2c1=O
→ 0.19 | -1.5
> COC(=O)c1sccc1S(=O)(=O)Nc1ccccc1Sc1ncnc2c(C)csc12
→ . | -2.9
> O=C(Nc1cccc(Cl)c1)N1CCN(c2nc3cc(F)ccc3n3cccc23)CC1
→ 0.46 | .
> CC(C(=O)c1ccccc1)C1(O)C(=O)N(Cc2ccccc2)c2ccccc21 (configuration not stated)
→ . | -1.8
> Cc1ccc(-c2nnc3ccc(SCC(=O)Nc4nnc(C)s4)nn23)cc1
→ . | -0.27

Later entries:
Results follow in this order: HIV TAR-Tat | CDC25B-CDK2 inh
> CC(C)Cn1c(=O)c2ccc(C(=O)NC(C)C)cc2n2c(=O)[nH]nc12
→ 0.01 | -1
> O=C(Nc1sc2c(c1C(=O)Nc1ccccc1)CCCCC2)c1ccncc1
→ . | -1.7
> Cc1ccc(-c2nnc3sc(COc4ccc(Br)cc4)nn23)cc1
→ 1.4 | -1.7
> O=c1oc2ccccc2cc1C1=Nn2c(nnc2-c2cccc(F)c2)SC1
→ . | -1.4
> CC(C)(C)NS(=O)(=O)c1ccc2nc(NC(=O)Cc3cccs3)sc2c1
→ -0.19 | .
> Cc1c(C)c(C)c(CSC(N)=Nc2ccc(F)cc2)c(C)c1C
→ . | -1.1
> c1ccc(-c2nnc(NCc3nc4ccccc4[nH]3)c3ccccc23)cc1
→ 2.1 | -1.3
> O=C(O)c1ccc2c(c1)C1C=CCC1C(c1cccc(F)c1)N2 (configuration not stated)
→ 9.3* | 0.43
> O=C(c1ccc(-c2ccccc2)cc1)N1CCN(Cc2ccccc2Br)CC1
→ . | 1.6
> NS(=O)(=O)c1ccc(CCNc2ccc3nnc(-c4ccccc4)n3n2)cc1
→ 0.79 | -0.41
> COC(=O)c1ccc(C(=O)OC)c(NC(=O)c2ccc([N+](=O)[O-])o2)c1
→ 1.1 | 0.26
> Cc1noc2ncnc(N3CCCC(C(=O)NCc4cccs4)C3)c12 (configuration not stated)
→ 1.4 | .
> CC(C)c1ccc(N(Cc2cc(=O)n3ccccc3n2)C2=NC3CS(=O)(=O)CC3S2)cc1 (configuration not stated)
→ 1.8 | 0.41
> O=C(NC1(C(F)(F)F)NC(=O)N(CCc2ccccc2)C1=O)c1ccc(F)cc1 (configuration not stated)
→ . | -0.36
> CCOc1ccc(-c2cc(OC(=O)c3ccc(F)cc3)c3c(C)oc(C)c3c(=O)c2)cc1
→ -0.14 | -0.25
> Cc1cc(N2CCn3c(nc4ccccc43)C2)ccc1NS(=O)(=O)c1ccc(Cl)cc1
→ -0.24 | -2
> CC(C)c1onc(C(=O)N(C)C2CCCCC2)c1[N+](=O)[O-]
→ -0.6 | -1.4
> CC(C)n1c(-c2ccccc2)nc2ccccc21
→ . | 3.3
> CC1=NN(c2nc(C)cc(C)n2)C(=O)C1Cc1ccccc1 (configuration not stated)
→ -0.78 | -1.4
> COc1cc2c(cc1OC)-c1cc(Oc3ccc(C)c(C)c3)nc(=O)n1CC2
→ -2.9 | -1.4

Whole records, looked up by structure:
Listed for `Cc1ncc(-c2ccc(S(=O)(=O)N(C)Cc3ccco3)cc2)o1` → HIV TAR-Tat = 1; CDC25B-CDK2 inh = .
Listed for `Cc1cc(C)c2c(=O)cc(C(=O)Nc3nc(C)c(C(=O)OCC(C)C)s3)oc2c1` → HIV TAR-Tat = -0.07; CDC25B-CDK2 inh = -0.35

Carrying on:
Results follow in this order: HIV TAR-Tat | CDC25B-CDK2 inh
> COc1ccc(-c2csc(-c3nc(-c4ccccc4)cs3)n2)cc1
→ -0.09 | -0.5
> CC(C)(C)c1ccc(-c2nc(-c3ccccn3)no2)cc1
→ -0.4 | 0.63
> Cc1nc2cc(S(=O)(=O)N3CCC(C(=O)NCCC4=CCCCC4)CC3)ccc2n1C1CCCC1
→ 0.29 | -1.3
> CC1(C)Cc2nc3oc4c(=O)n(CC(=O)c5ccc(Cl)cc5)cnc4c3cc2CO1
→ -1.2 | .
> O=C(C1CCN(c2nn3cc(-c4ccc(F)cc4)nc3s2)CC1)N1CCCC1
→ 0 | .
> CCOC(=O)CC1Sc2ccccc2N=C1SCC(=O)Nc1ccc(Cl)cc1 (configuration not stated)
→ . | -5
> OCCNc1ncnc2nc[nH]c12
→ . | -0.9
> CCN(CC)CCNS(=O)(=O)c1cc(-c2cc(C)no2)ccc1OC
→ 1.4 | .
> COc1ccc(OC(=O)/C=C/c2sc3ccccc3c2C)cc1
→ . | -2.5
> CCOC(=O)Cn1nc2n(c1=O)-c1ccccc1SC2
→ . | -1.7
> O=C(Nc1c(C(=O)N(Cc2ccco2)CC2CCCO2)oc2ccccc12)c1cccc(F)c1 (configuration not stated)
→ -0.27 | .
> CCCN(CCC)S(=O)(=O)c1ccc2c(c1)N(C)C(=O)CC(=O)N2C
→ 1.8 | -1.7
> COc1ccc(C(=O)OCc2cc(=O)n3c(C)csc3n2)cc1OC
→ 1.1 | .
> CCOc1ccc(Nc2nn3nnnc3c3ccccc23)cc1
→ 1.9 | -2.4
> CN(C(=O)CCc1nnc2ccc(NCc3ccc4c(c3)OCO4)nn12)c1ccc(F)cc1
→ 2.1 | .
> Cc1ccc2oc(=O)n(CC(=O)O)c2c1
→ -1.3 | -1.4
> O=C(CC1Sc2ccccc2NC1=O)Nc1ccccc1 (configuration not stated)
→ . | -0.26
> CC1(C)Cc2c(sc3c2c(=O)n(CC(=O)O)c(=O)n3CC(=O)O)CO1
→ 1.4 | -2.2
> COc1ccc(-c2csc(-c3ccc4c(c3)OCO4)n2)cc1
→ . | -3.2
> Cc1[nH]nc(NC2=CC(=O)CC(C)(C)C2)c1-c1ccc(Cl)cc1
→ -0.56 | -1.6
> Cn1ncc2c(Nc3ccc(Cl)cc3)nc(N3CCCC3)nc21
→ -0.07 | .
> CCN(CC)c1ccc(CNCCSc2nnnn2-c2ccccc2)cc1
→ -0.63 | -1.3
> CCc1ccc(C2CC(=O)Nc3c2c(C)nn3-c2nc(C)cc(C)n2)s1 (configuration not stated)
→ 0.25 | 0.84
> Cc1cc2c(cc3c(=O)n(CCCC(=O)NC4CCCCC4)nc(C)n32)o1
→ 0.5 | -2.1
> O=C1c2cccnc2C(=O)N1Cc1ccc(S(=O)(=O)NCC2CCCO2)cc1 (configuration not stated)
→ 0.62 | .
> O=C(NCc1ccc2c(c1)OCO2)c1ccc(Cn2cc(Cl)cn2)cc1
→ -0.77 | -0.5
> O=C1CC(c2ccccc2)n2nc(NS(=O)(=O)c3ccccc3)nc2N1 (configuration not stated)
→ . | -1.6
> COc1cccc(-c2noc(=O)[nH]2)c1
→ 0.63 | 0.97
> COc1ccc(-c2cc(NCc3ccc(C)cc3)n3cnnc3n2)cc1
→ 2.5 | -1.3
> CC(C)(C)C(=O)CSc1nc2c(cc1C#N)N1CCC2CC1
→ . | -0.06
> CCOc1ccccc1N1CC(c2nc3ccccc3n2CC)CC1=O (configuration not stated)
→ 4 | -2.3
> Cc1c(NC(=O)NCCC2=CCCCC2)sc2nc3n(c(=O)c12)CCC(C)CC3 (configuration not stated)
→ 1.4 | -5.2
> Cc1nc2ccccc2c2c1C(=O)N(CCO)C2=O
→ -0.15 | 1.9
> CC(Oc1ccccc1Cl)C(=O)N(Cc1cccs1)C1CCS(=O)(=O)C1 (configuration not stated)
→ -0.7 | 0.89
> CN1C(=O)c2cc(C(=O)NCCCN3CCCC3)nn2CC1(C)C(=O)NC1CCCCC1 (configuration not stated)
→ 0.98 | .
> O=S(=O)(c1ccc(-c2noc(COc3ccccc3)n2)cc1)N1CCCC1
→ 1.9 | .
> Nc1ncc(C(F)(F)F)cc1C(F)(F)F
→ . | -0.81
> O=c1c2cn[nH]c2nc(SCc2cc(=O)n3ccccc3n2)n1-c1ccccc1Cl
→ . | -1.5
> Cc1cccc(NC(c2ccccn2)c2c(C)[nH]c3ccc(NC(=O)c4ccco4)cc23)n1 (configuration not stated)
→ 2.5 | 1.2
> CCOC(=O)c1nnn(-c2ccc(Cl)cc2)c1C(=O)OCC
→ -1.2 | -1.2
> COc1ccc(Cl)cc1NS(=O)(=O)c1ccc(-c2n[nH]c(C)c2C)s1
→ -1.5 | .
> COc1ccc(C2=C(C)C(=NCCC3=CCCCC3)NS2(=O)=O)cc1
→ 0.55 | -1.1
> Cc1nc2nc(CNc3ccc(Cl)cc3)[nH]n2c(=O)c1C
→ 1.1 | -0.72
> CSc1ccc(CN2CCN(S(=O)(=O)c3ccccc3)CC2)cc1
→ -0.77 | -1.8
> Cc1ccc(-c2nc3nc(C)cc(N(C)Cc4ccccc4)n3n2)cc1
→ 0.77 | 1.9
> CCCCSC1=C(C#N)C(=O)NC(c2ccc(OC)cc2)S1 (configuration not stated)
→ 0.47 | -0.78
> COc1ccc(NC(=O)CSc2nc3c(c(=O)[nH]2)CCC3)cc1OC
→ 0.89 | -0.88
